ALR inh = blocks human ALR sulfhydryl oxidase activity | P55789 | purified ALR, DTT oxidation, H2O2 HRP-luminol luminescence | inhibition, % (test concentration not listed) | hit rate 3.8% among 290,000;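 active means mean and each replicate at 75% or more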;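 further: stock transfer was 7.5 nL into about 7.5 µL; 0% = neutral wells and 100% = wells with inactivated enzyme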
Target sequence (P55789 whole entry, looked up): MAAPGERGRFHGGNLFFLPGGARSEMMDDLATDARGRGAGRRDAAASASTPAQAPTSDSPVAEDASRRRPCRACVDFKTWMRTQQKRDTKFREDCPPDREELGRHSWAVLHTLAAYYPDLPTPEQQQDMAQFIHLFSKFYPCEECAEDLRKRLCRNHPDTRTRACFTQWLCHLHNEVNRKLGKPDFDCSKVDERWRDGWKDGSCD
rRNA inh HTS = inhibitors of bacterial rRNA selective over humanized ribosomes | E. coli WT GFP vs humanized-ribosome RFP mutants, fluorescence, 24 h; active compounds read low; DMSO median 0, no signal -100 | hit rate 1.6% among 350,000 | GFP signal change (wild-type ribosome), % (concentration not given with the values);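 active means significant combined selectivity score with lowered wild-type GFP, culture density cut under 30%, mutant RFP and density less affected; inactive means any of these conditions unmet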; further: one replicate is shown; some compounds called inactive have numbers as strong as hits
Ecoli growth = inhibitors of Escherichia coli growth; OD600, 23 h; active compounds read low; OD600 absorbance (no concentration beside the values); hit rate 0.21% among 330,000;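 active means OD600 absorbance below the run mean of sample wells minus 3.6 SD, in any replicate, cut at about 0.56 in these data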;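 further: stock transfer was 300 nL into about 60 µL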
B2AR ag = human beta-2 adrenergic receptor agonism by FAP | P07550 | Am2.2-beta2AR cells, FAP receptor internalization, flow cytometry; reference of the scale not given here | response, % (no concentration beside the values) | hit rate 0.43% among 340,000;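 active means response above a set limit, near 3 SD of response in nonfluorescent compounds, cut at about 42% in these data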;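 further: stock transfer was 100 nL into about 11 µL; a reference agonist was the positive control; negative values mostly stem from fluorescent compounds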
HNF4A DNA FP = change in binding of human HNF4 alpha to DNA. P41235. HNF4a-FITC DNA binding, fluorescence polarization, 1 h. activity change, % at 10 µM. hit rate 0.3% among 360,000. AID 1224865; in the data active means activity change above about 30%, passing the limit was not always enough;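 further: controls were the assay level and a saturating level of protein; the project sought stronger binding though the title names inhibitors; some compounds called inactive have numbers as strong as hits; positive values seem to mean higher polarization but the record does not say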
Target sequence (P41235 whole entry, looked up): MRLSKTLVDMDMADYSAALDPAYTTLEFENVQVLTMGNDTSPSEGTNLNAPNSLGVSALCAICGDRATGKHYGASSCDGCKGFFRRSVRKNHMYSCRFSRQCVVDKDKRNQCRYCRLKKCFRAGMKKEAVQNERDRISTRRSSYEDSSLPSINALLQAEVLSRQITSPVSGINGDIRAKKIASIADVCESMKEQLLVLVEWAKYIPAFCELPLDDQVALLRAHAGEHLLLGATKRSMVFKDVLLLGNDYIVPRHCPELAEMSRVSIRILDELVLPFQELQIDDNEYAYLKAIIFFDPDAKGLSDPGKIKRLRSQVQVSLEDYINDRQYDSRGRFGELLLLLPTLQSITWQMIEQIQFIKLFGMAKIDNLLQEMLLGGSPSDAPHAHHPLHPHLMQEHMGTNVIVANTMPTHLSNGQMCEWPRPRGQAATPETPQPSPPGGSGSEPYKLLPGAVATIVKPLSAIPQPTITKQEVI
UCH37 DUB inh = human UCH37 deubiquitinating enzyme inhibition; Q9Y5K5; purified proteasome/UCH37, Ub-AMC cleavage fluorescence; inhibition, % (test concentration not listed); hit rate 0.33% among 330,000;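 active means mean of two replicates above 20%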;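 further: 0% = compound-free wells with enzyme and 100% = wells lacking proteasome; stock transfer was 100 nL into about 20 µL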
Target sequence (Q9Y5K5 whole entry, looked up): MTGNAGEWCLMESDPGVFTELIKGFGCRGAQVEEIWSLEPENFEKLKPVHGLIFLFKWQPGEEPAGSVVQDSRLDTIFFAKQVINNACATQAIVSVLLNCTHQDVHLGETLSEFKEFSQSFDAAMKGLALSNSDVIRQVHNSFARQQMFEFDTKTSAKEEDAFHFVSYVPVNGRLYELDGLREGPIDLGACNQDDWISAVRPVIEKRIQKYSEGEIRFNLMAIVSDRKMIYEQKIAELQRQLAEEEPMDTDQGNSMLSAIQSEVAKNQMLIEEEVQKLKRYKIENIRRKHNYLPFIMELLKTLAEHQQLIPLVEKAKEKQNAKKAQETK
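Signal – fluorescence, ex 355 nm, em 460 nm · System – Proteasome-bound UCH37 · Input – 0.15 nM proteasome as dispensed · Timing – 30 min preincubation with enzyme, 25 min cleavage at room temperature · Read-out basis – percent inhibition of cleavage signal versus uninhibited and no-proteasome wells · Medium – Tris-HCl pH 7.4 with ATP-MgCl2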
FGF22 binding = shifts melting point of recombinant human FGF22. AID 651658. hit rate 1.5% among 340,000. recombinant FGF22 thermal shift, SYPRO orange fluorescence; percent of sucrose octasulfate shift, DMSO zero. calls only at 9.99 µM;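 active means melting point raised past a set limit in the mean and every replicate; three in four hits are not shown here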
rRNA inh HTS OD600 = recorded beside rRNA inh HTS, whose call it bears; OD600 change, %; measured here: OD600 growth;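 optical density of the mix in the first replicate; 0 = DMSO median and -100 = no signal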
rRNA inh HTS RFP = second read-out of rRNA inh HTS, no call of its own (marks repeat the call); RFP signal change, %; measured here: RFP humanized mutant strains;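 first replicate; 0 = DMSO median and -100 = no signal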
Numbers without * were called inactive; i = inactive; . = not tested or not shown. These rows are one share of the data; count on the stated rates, not on these rows.

SMILES	ALR inh	rRNA inh HTS	rRNA inh HTS OD600	rRNA inh HTS RFP	Ecoli growth	B2AR ag	HNF4A DNA FP	UCH37 DUB inh	FGF22 binding
CCOC(=O)CSc1nc2ccccc2c(=O)n1CC1CCCO1 (stereo unspecified)	19	.	.	.	0.74	1	-2.3	4.2	.
Cc1cccc2cc(CN(CC3CCCO3)C(=O)c3cnccn3)c(=O)[nH]c12 (stereo unspecified)	.	.	.	.	0.73	4	1.3	-2.3	.
O=C(COC(=O)c1ccco1)Nc1ccc(Cl)cn1	-3	26	14	4.3	.	-1	-0.8	.	i
O=C(Nc1ccc2nn(-c3ccccc3)nc2c1)c1ccc2c(c1)OCO2	-2	.	.	.	0.66	13	-2.0	-51	.
CCCCNC(=O)CSc1nnc(-c2c[nH]c3ccccc23)n1CC1CCCO1 (stereo unspecified)	-3	-1	6	-8.6	0.72	-1	6.9	0.9	i
O=C(CN1C(=O)NC2(CCCCCCC2)C1=O)NCc1ccc(Cl)cc1	-3	-3	-3	-6.3	0.67	-3	1.8	1.7	i
CC(/C=C/c1ccco1)=N\NC(=O)c1cc(C)[nH]n1	-4	.	.	.	.	-5	1.0	.	.
COC(=O)CN1C(=S)N(C)C(=O)/C1=C/c1cccs1	15	2	-6	2.9	0.68	12	1.5	-9.9	i
CCN(Cc1ccccc1)C(=O)C1CCN(CC2CC=CCC2)CC1 (stereo unspecified)	-10	.	.	.	0.7	-2	1.1	4.6	.
COc1cccc(C(C#N)NCCCNC(C#N)c2cccc(OC)c2OC)c1OC (stereo unspecified)	.	2	16	-4.6	.	-3	-3.5	.	i
NC(=O)NC(CC(=O)NNC(=O)c1ccccn1)c1ccccc1Cl (stereo unspecified)	-1	9	11	-0.2	0.65	-5	-1.8	-2.5	i
O=C(NCc1ccccc1)c1cccc2c(-c3cccnc3)coc12	.	-20	-43	-6.0	.	.	-2.6	.	i
COc1ccc(/C(N)=N/OC(=O)C2CCC(=O)N2S(=O)(=O)c2ccc(C)cc2)cc1 (stereo unspecified)	-19	.	.	.	0.7	2	3.1	3.4	.
COC(=O)CNC(=O)c1cc(-c2ccncc2)nc2ccc(C)cc12	-4	9	-6	-1.5	0.7	11	-2.5	-91	i
C/C(Cn1nc([N+](=O)[O-])cc1C)=N\NC(=O)c1ccc(C(C)(C)C)cc1	-3	.	.	.	.	16	-1.2	.	.
FC(F)(F)C1CC(c2cccs2)Nc2ncnn21 (stereo unspecified)	-5	.	.	.	0.72	0	1.8	1.8	.
COC(=O)C1=C(C)N(C)C(=O)NC1c1ccsc1 (stereo unspecified)	-8	3	6	-2.8	0.67	2	-0.1	0.6	i
COCCOC(=O)C1=C(C)NC(=O)NC1c1c(OC)ncnc1OC (stereo unspecified)	.	.	.	.	0.71	1	-0.9	1.8	.
Cc1ccc(S(=O)(=O)Cc2ccc(C(=O)N3CCN(c4ccc(F)cc4)CC3)o2)cc1	62	-7	-18	-2.0	0.77	-7	-3.3	1.6	i
COc1ccc(OC)c(CCNC(=O)c2ccc3c(=O)[nH]c4c(C(=O)NC(C)C)sc(=S)n4c3c2)c1	-2	3	13	-2.4	0.69	7	1.6	12	i
CCc1ccc(-c2nn(-c3ccccc3C)cc2C(=O)N2CCN(C3CCS(=O)(=O)C3)CC2)cc1 (stereo unspecified)	-5	27	31	11	0.66	-14	-4.9	-2.1	i
CC1CC(C)CN(C(=O)COC(=O)c2ccc(S(=O)(=O)N(C)c3ccccc3)cc2)C1 (stereo unspecified)	-7	-4	-13	-2.1	0.71	4	-2.9	1.8	i
O=C(COc1ccc2ccccc2c1)N1CCNCC1	-20	7	0	3.8	0.66	0	-2.9	5.4	i
O=C(c1ccccc1)n1ccc(-c2cccs2)n1	0	6	7	1.9	0.72	-5	1.6	3.6	i
COc1cccc(N2C(=O)C3CCCN3C2=S)c1 (stereo unspecified)	.	0	13	-3.1	0.68	-2	-0.5	7.2	i
COc1cccc(C(=O)NCCS(=O)(=O)N2CCOCC2)c1	2	5	7	-3.1	.	-2	1.3	.	i
N#CCSc1nnc(-c2ccc(F)cc2)n1N	-9	8	11	-5.3	0.71	24	0.8	1.8	i
COc1ccc(C(=O)Nc2sc(C)c(C)c2CN2CC(C)OC(C)C2)cc1 (stereo unspecified)	-4	1	8	-0.7	0.68	8	1.6	-70	i
Cc1cccc(N(CC(=O)NC2CCCC2)C(=O)c2csnn2)c1C	-1	18	12	6.7	0.72	1	4.0	0.9	i
Cc1ccc(-c2csc3nnc(SCC(=O)NCc4ccco4)n23)cc1	-1	.	.	.	0.68	1	-1.9	1.0	.
O=C(CC12CC3CC(CC(C3)C1)C2)NC1CC1	-5	-2	-2	-0.3	0.69	-2	4.6	1.6	i
OC(COCc1ccccc1)CN1CCN(c2ccccc2)CC1 (stereo unspecified)	82*	.	.	.	0.66	3	2.6	1.9	.
Cc1ccc(SCCC(=O)NCCSCc2ccccc2C)cc1	-5	.	.	.	0.66	3	-1.3	3.4	.
CC(=O)c1c(N2CCN(c3ccccn3)CC2)nc(=S)n(-c2ccccc2)c1C	1	0	0	-0.6	0.68	-4	-0.6	7.0	i
COCCNCC1C(Oc2ccc(Cl)cc2)C(=O)N1c1ccccc1C (stereo unspecified)	-1	-15	-12	0.1	0.67	-2	3.1	3.9	i
COc1ccc(C(=O)NC(=S)Nc2nc(C)cc(C)n2)cc1Br	0	0	-11	0.7	0.68	-11	-0.3	3.3	i

Structures listed so far that contain two or more sulfur atoms:
SMILES	ALR inh	rRNA inh HTS	rRNA inh HTS OD600	rRNA inh HTS RFP	Ecoli growth	B2AR ag	HNF4A DNA FP	UCH37 DUB inh	FGF22 binding
COC(=O)CN1C(=S)N(C)C(=O)/C1=C/c1cccs1	15	2	-6	2.9	0.68	12	1.5	-9.9	i
COc1ccc(OC)c(CCNC(=O)c2ccc3c(=O)[nH]c4c(C(=O)NC(C)C)sc(=S)n4c3c2)c1	-2	3	13	-2.4	0.69	7	1.6	12	i
Cc1ccc(-c2csc3nnc(SCC(=O)NCc4ccco4)n23)cc1	-1	.	.	.	0.68	1	-1.9	1.0	.
Cc1ccc(SCCC(=O)NCCSCc2ccccc2C)cc1	-5	.	.	.	0.66	3	-1.3	3.4	.

Further results follow.
SMILES	ALR inh	rRNA inh HTS	rRNA inh HTS OD600	rRNA inh HTS RFP	Ecoli growth	B2AR ag	HNF4A DNA FP	UCH37 DUB inh	FGF22 binding
COc1ccc(NC(=S)Nc2ccccc2F)c(OC)c1	-34	.	.	.	0.71	-1	-0.8	4.9	.
Cc1ccccc1C(=O)NNC(=O)CSc1nnc(-c2ccncc2)n1-c1ccccc1	-2	10	-1	-0.3	0.71	1	0.6	2.5	i
CN1CCN(CCC(=O)N/N=C/c2ccccc2F)CC1	-33	17	5	0.6	.	0	0.0	.	i
O=C1NC(=O)/C(=C\c2ccccc2Oc2ccc(F)c(F)c2)S1	-6	.	.	.	0.72	1	-0.2	-1.6	.
O=c1[nH]ncc(N2CCCCCC2)c1Cl	-14	9	17	-3.5	0.67	-1	-1.2	4.7	i
Cc1cc(N/N=C/c2ccc(O)c(C)c2O)nc(-c2ccccc2O)n1	4	.	.	.	.	24	-0.8	.	.
NCCCC[C@H](N)c1nnc([C@H](CCC(=O)O)NC(=O)C2CCNCC2)o1	-14	-2	-8	4.3	.	3	0.6	3.2	i
O=C(Cn1[nH]c(=O)c2ccccc2c1=O)NNC(=O)c1ccccc1	2	13	7	0.7	0.66	-13	6.5	0.1	i
CCOc1cccc(/C=N/N2C(C)CCCC2C)c1O (stereo unspecified)	-2	13	8	2.9	.	5	1.6	.	i
CC1CCCN(CCCNC(=O)CCn2nc(-c3ccccc3)ccc2=O)C1 (stereo unspecified)	.	20	10	-9.6	0.68	-8	0.2	0.1	i
CC(C)CC(NC(=O)OCc1ccccc1)C(=O)NC(Cc1ccccc1)C(=O)CCl (stereo unspecified)	.	0	-3	11	.	3	-4.5	.	i
Cc1cc(=O)oc2c(C)c(OCC(=O)NCCN3CCOCC3)ccc12	-3	3	2	3.0	0.66	2	-0.2	-24	i
CC(O)c1ccc(-n2cnnn2)cc1 (stereo unspecified)	7	14	13	4.4	0.68	2	-1.0	1.9	i
CCOc1ccc(C(=O)NC(C(=O)NCc2cccnc2)C(C)C)cc1 (stereo unspecified)	-3	-2	-2	-2.3	0.64	-7	2.5	0.7	i
CCOC(=O)c1c(CN2CCOCC2)n(-c2ccccc2)c2cc(Br)c(OC)cc12	0	.	.	.	0.68	12	-0.9	-0.5	.
CC(C)(CNC(=O)CNC(=O)c1ccccc1F)N1CCOCC1	-2	.	.	.	0.69	4	2.1	-1.8	i
Cc1cccc(-n2c(CNC(=O)c3ccccc3)nnc2SCC(=O)Nc2nccs2)c1	8	4	23	-3.8	0.66	32	-0.8	0.6	i
CN(C)CCCOC(=O)c1ccc(Br)cc1	0	.	.	.	0.71	-1	1.1	4.0	.
O=C(NC(=O)c1ccccc1O)c1ccc(C(F)(F)F)cc1	36	-6	-10	1.7	0.64	8	-1.2	4.9	i
CC1(C)Cc2cccc(OCC(=O)NCc3cccs3)c2O1	.	-5	-5	2.6	0.68	-5	0.3	1.2	i
CCN(CC)CCC(=O)NN	-3	14	17	-6.3	0.65	-158	8.2	2.8	i
CCOC(=O)Cn1nnnc1C(C(C)C)N(Cc1cc2c(C)cc(C)cc2[nH]c1=O)C1CCCC1 (stereo unspecified)	3	.	.	.	0.72	2	-1.2	5.6	.
COc1cccc(NC(=O)c2ccc(OC(F)(F)F)cc2)c1	-8	-1	-9	-10	0.67	-2	2.6	0.9	i
C/C(=C\C(=O)c1ccccc1)Nc1ccc(O)cc1	25	.	.	.	0.59	-7	1.3	6.2	.
COc1ccccc1C(=O)N(Cc1sccc1C)C1CCS(=O)(=O)C1 (stereo unspecified)	-15	13	7	4.3	.	-6	2.6	.	i
C=CC(n1cncn1)C(O)(c1ccccc1)c1ccccc1 (stereo unspecified)	-15	14	10	-5.2	0.71	-5	-0.3	3.2	i
O=C(O)CSc1nnc(-c2cccs2)n1-c1ccc(Cl)cc1	-8	.	.	.	0.67	1	0.2	4.5	.
Cc1ccc(N(C(=O)Cc2cccs2)C(C(=O)NC2CCCCC2)c2ccccn2)cc1C (stereo unspecified)	-2	.	.	.	0.72	14	-5.1	1.4	.
OCCNC(=S)Nc1cccc(Cl)c1Cl	-11	7	-7	-3.4	0.67	4	0.5	0.7	i
CC(=O)Nc1sc(/C(C#N)=C/c2ccc(Cl)c(Cl)c2)nc1-c1ccc(C)cc1	.	12	11	32	0.76	i	26	6.5	i
Cc1ccc(OCCNC(=O)c2ccccc2N)cc1	.	6	1	0.3	0.72	-2	2.5	-58	i
CCn1c(N)c(C(=O)NCc2ccco2)sc1=S	.	.	.	.	0.72	-6	3.9	7.9	.
Cc1ccc(Cc2c(-c3ccc(Cl)cc3)nc3c4ccccc4ccn23)cc1	.	-4	6	20	.	.	9.0	.	i
CCOc1ccc2nc(SCC(=O)NCc3ccc4c(c3)OCO4)[nH]c2c1	4	.	.	.	0.66	-7	4.6	3.0	.

ALR inh, hit marks shown above
SMILES	ALR inh	rRNA inh HTS	rRNA inh HTS OD600	rRNA inh HTS RFP	Ecoli growth	B2AR ag	HNF4A DNA FP	UCH37 DUB inh	FGF22 binding
OC(COCc1ccccc1)CN1CCN(c2ccccc2)CC1 (stereo unspecified)	82*	.	.	.	0.66	3	2.6	1.9	.

High-throughput results deposited in PubChem by several laboratories.
